T cruzi repl – T. cruzi replication inhibition. T. cruzi beta-gal in NIH3T3, luminescence, 90 h. AID 1885. actives 1.4% (n = 300,000). inhibition, % (no concentration beside the values);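 active = mean inhibition across valid replicates above about 55%, limit read from the data; inconclusive = mean below that limit but half or more replicates reach it; inactive = mean below it, under half of replicates reach it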;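 also: signal also drops with host cell toxicity which is not excluded here; 0% = plate median of DMSO wells and 100% = zero luminescence signal; higher percent means less beta-gal luminescence so fewer parasites; stock transfer was 50 nL into about 50 µL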
Beta cell apopt – blocks beta cell apoptosis | INS-1E cytokine-induced death, ATP luminescence, 48 h; percent of positive-control rescue, neutral wells zero | protection from apoptosis, % (no concentration beside the values) | actives 0.8% (n = 300,000) | AID 435005;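 active = all replicates at 75% or more, or half of them and the mean; inconclusive = half reach 75% but not the mean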;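 also: 0% = cytokine-treated negative control wells and 100% = positive control rescue; higher means more ATP so stronger rescue from cytokine killing; wells of about 40 µL received 100 nL stock; the first replicate is given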
ALR inh – inhibitors of human sulfhydryl oxidase ALR; inhibition, % (no concentration beside the values); P55789; purified ALR, DTT oxidation, H2O2 HRP-luminol luminescence; actives 3.8% (n = 290,000);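 active = mean and each replicate at 75% or more; inconclusive = only one of the two met; inactive = neither met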;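 also: stock transfer was 7.5 nL into about 7.5 µL; 0% = neutral wells and 100% = wells with inactivated enzyme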
Target sequence (P55789 whole entry, looked up): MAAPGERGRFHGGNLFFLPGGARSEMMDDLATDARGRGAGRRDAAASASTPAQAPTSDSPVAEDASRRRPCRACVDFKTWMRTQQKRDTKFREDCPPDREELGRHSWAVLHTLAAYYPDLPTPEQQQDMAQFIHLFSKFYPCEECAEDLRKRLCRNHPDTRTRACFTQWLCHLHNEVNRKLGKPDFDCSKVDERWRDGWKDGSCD
B2AR ag – agonists of human beta-2 adrenergic receptor inducing internalization | Am2.2-beta2AR cells, FAP receptor internalization, flow cytometry; reference of the scale not given here | response, % (no concentration beside the values) | actives 0.43% (n = 340,000);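 active = response above a set limit, near 3 SD of response in nonfluorescent compounds, cut at about 42% in these data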;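 also: stock transfer was 100 nL into about 11 µL; a reference agonist was the positive control; negative values mostly stem from fluorescent compounds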
Target sequence (P07550 whole entry, looked up): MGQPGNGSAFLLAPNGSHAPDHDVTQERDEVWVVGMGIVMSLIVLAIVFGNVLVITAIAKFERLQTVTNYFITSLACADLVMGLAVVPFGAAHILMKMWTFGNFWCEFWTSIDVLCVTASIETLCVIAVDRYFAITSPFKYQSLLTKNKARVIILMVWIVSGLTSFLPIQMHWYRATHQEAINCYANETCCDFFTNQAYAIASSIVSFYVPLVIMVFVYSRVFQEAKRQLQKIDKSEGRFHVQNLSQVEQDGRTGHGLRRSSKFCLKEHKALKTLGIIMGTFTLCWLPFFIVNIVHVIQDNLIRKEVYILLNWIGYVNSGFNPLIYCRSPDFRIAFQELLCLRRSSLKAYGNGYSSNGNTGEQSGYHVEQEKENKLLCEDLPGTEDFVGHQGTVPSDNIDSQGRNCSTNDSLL
Calb FLC – C. albicans growth modulation with fluconazole; C. albicans CaCi-2 (fluconazole-resistant clinical isolate) + fluconazole, Alamar Blue growth, 48 h; growth inhibition, % (concentration not given with the values); actives 0.57% (n = 300,000); AID 1979;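 active = most replicates above 75%; inconclusive = exactly half above 75%; inactive = most below 75%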;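 also: all wells also contain fluconazole at 8 µg/ml as a sub-toxic cotreatment; 0% = median of DMSO wells and 100% = median of geldanamycin control wells; wells of about 8 µL received 7.5 nL stock; the first replicate is given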
A1 inh – inhibitors of the anti-apoptotic protein A1, read as caspase activation; MEF A1-2A-BIM cells, Caspase-Glo 3/7 luminescence, 3 h; percent of clofoctol response, vehicle zero; caspase activation, % (test concentration not listed); actives 0.066% (n = 330,000); AID 2462;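 active = over half of replicate activation scores above 10%, or exactly half above 10 with the replicate mean above 10; inconclusive = replicate mean below 10 yet half the replicates above 10; inactive = over half of replicates below 10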;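 also: wells of about 30 µL received 50 nL stock; many hits fall short of the cut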
Ecoli rRNA inh – selective bacterial rRNA inhibition in E. coli; E. coli WT GFP vs humanized-ribosome RFP mutants, fluorescence, 24 h; hits give low values; DMSO median 0, no signal -100; GFP signal change (wild-type ribosome), % (no concentration beside the values); actives 1.6% (n = 350,000); AID 720706;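 active = significant combined selectivity score with lowered wild-type GFP, culture density cut under 30%, mutant RFP and density less affected; inactive = any of these conditions unmet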; also: one replicate is shown; some compounds called inactive have numbers as strong as hits
LANA-H2A inh – blocks KSHV LANA binding to histone H2A/H2B; Q9QR71; cell-free LANA-H2A/H2B peptide, fluorescence polarization; inhibition, % (concentration not given with the values); actives 0.6% (n = 320,000); AID 2629; in the data active = inhibition mostly above about 10%, no sharp cut-off; inactive = mostly below about 6.7%;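 also: stock transfer was 7.5 nL into about 10 µL; 0% = median of vehicle wells and 100% = median of positive control wells; one replicate is shown; the record names a cut of 25% in any replicate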
Ecoli rRNA inh OD600 – second read-out of Ecoli rRNA inh, no call of its own (marks repeat the call); OD600 change, %; measured here: OD600 growth;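 optical density of the mix in the first replicate; 0 = DMSO median and -100 = no signal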
Ecoli rRNA inh RFP – recorded beside Ecoli rRNA inh, whose call it bears; RFP signal change, %; measured here: RFP humanized mutant strains;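 first replicate; 0 = DMSO median and -100 = no signal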
* marks the source's active call; other numbers are inactive results; ? = inconclusive; . = not tested or not shown.

entry	smiles	T cruzi repl	Beta cell apopt	ALR inh	B2AR ag	Calb FLC	A1 inh	Ecoli rRNA inh	Ecoli rRNA inh OD600	Ecoli rRNA inh RFP	LANA-H2A inh
1	O=C(NCC(c1cccnc1)N1CCN(c2ccccc2)CC1)C1CCCCC1 (stereo unspecified)	56.4*	3.5	88.2*	-0.6	-17.5	-0.2	.	.	.	0.3
2	C=CCOc1ccc(C=Nc2ccc(C)c(Cl)c2)c(O)c1	-6.5	-7.1	-20.2	5.4	?	-0.4	.	.	.	-3.1
3	CN1CCN(c2ccc(Cl)cc2NC(=O)/C=C/c2cccc(F)c2)CC1	27.0	-0.2	9.1	-1.4	-17.3	0.7	-45.1	-74.8	-9.2	1.3
4	CC1Oc2ccccc2N(CC(=O)NC2CCCC2)C1=O (stereo unspecified)	-5.4	-2.4	1.5	-0.2	12.0	-0.8	4.8	8.0	-2.6	-1.0
5	O=C(NCc1ccccc1)C(=O)NCC1OCCN1C(=O)c1cccs1 (stereo unspecified)	-11.5	-0.2	-1.6	-11.0	26.8	-0.6	1.4	9.8	-2.0	-2.1
6	CCOc1ccc2oc(C(=O)Nc3ccc4c(c3)OCO4)c(C)c2c1	36.8	.	-7.9	15.0	-4.0	-4.8	-8.3	-3.7	-1.2	-7.0
7	CCOC(=O)c1cc(-c2cccnc2)nn1-c1ccccc1	-14.2	-14.1	-0.4	0.1	6.0	-1.2	-1.6	-5.8	-1.1	-1.8
8	CCOc1ccc(-c2cc(C(=O)NN3CCN(C)CC3)c3cc(Cl)ccc3n2)cc1	10.8	1.1	8.4	.	4.2	-0.2	.	.	.	0.3
9	O=C(COC(=O)C1CC(=O)N(Cc2ccco2)C1)c1ccc(OC(=O)c2ccccc2)cc1 (stereo unspecified)	-14.1	-1.7	.	3.6	8.0	0.6	.	.	.	0.0
10	COc1ccccc1C(=O)NCC(=O)N1CC=C(c2ccccc2)CC1	.	-3.0	3.5	-14.1	.	-1.2	-0.4	6.5	3.9	0.8
11	O=C(O)CC(c1ccc(Cl)cc1)n1cccc1 (stereo unspecified)	7.5	3.1	-1.6	2.8	?	0.4	.	.	.	2.2
12	CCOC(=O)CSc1nnc(NC(=O)CN2CCCCC2)s1	-16.0	-7.6	-2.4	-9.7	1.9	0.1	13.6	13.8	2.5	-1.3
13	Nc1c(C(=O)Nc2ccc3c(c2)OCCO3)nnn1Cc1cccc(Cl)c1	-11.8	27.3	3.3	11.8	0.7	-3.7	2.6	7.2	-0.7	0.8
14	COc1ccc(OC)c(N(CC(=O)N2CCCC2)S(=O)(=O)c2ccccc2)c1	-10.1	-3.9	2.1	0.3	2.8	0.2	0.9	14.4	-1.7	-3.5
15	CCOc1ccc(C(CC(=O)O)NC(=O)Cc2ccc(Cl)cc2)cc1 (stereo unspecified)	-13.2	-4.3	2.5	18.9	15.2	0.0	6.6	13.9	1.2	0.9
16	NC(=O)c1ccccc1NC(=O)c1cccc(C(=O)Nc2ccccc2C(N)=O)n1	4.9	-0.2	-3.2	-2.4	-0.8	0.6	6.5	2.3	-0.3	2.6
17	CC12CC3CC(C)(C1)CC(CN)(C3)C2	2.8	-4.8	-1.4	15.2	-3.0	1.4	.	.	.	-2.7
18	CN(CC(=O)Nc1ccccc1C(F)(F)F)C(=O)CC1OC(=O)c2ccccc21 (stereo unspecified)	0.8	-3.9	-2.7	1.1	-0.6	0.4	1.0	5.6	2.5	-5.6
19	COc1ccc(C(=O)Nc2ccc(OCc3ccccc3)cc2)cc1[N+](=O)[O-]	-0.8	3.1	-8.9	2.9	-14.6	-0.2	.	.	.	-1.5
20	COc1ccc(NC(=O)Cn2nnc(C(=O)NCc3cccs3)c2N)cc1Cl	-1.2	.	-5.1	-1.7	1.0	-1.0	7.2	8.1	-0.4	2.8
21	O=C(CCN1C(=O)COc2ccccc21)NCCCN1CCN(c2ccc(F)cc2)CC1	-1.0	-3.0	?	-1.5	-4.1	-0.7	.	.	.	-0.6
22	Cc1sc2ncnc(N3CCC(C(=O)NNC(=O)c4ccc(F)cc4)CC3)c2c1C	5.5	.	9.5	6.6	11.0	0.3	-13.8	-26.6	1.2	2.1
23	COc1ccc(N2C(=O)S[C@@H]3CS(=O)(=O)C[C@@H]32)cc1	-26.9	3.1	-1.4	5.8	2.0	1.1	.	.	.	-130.7
24	O=C(CCN1C(=O)c2ccccc2S1(=O)=O)Nc1ccc(C(=O)O)cc1	-12.7	4.7	-2.2	-1.2	2.0	1.1	-1.7	-13.8	-0.1	7.6
25	CC1CC(C)CN(C(=O)C2CCN(S(=O)(=O)c3c(Cl)cccc3Cl)CC2)C1 (stereo unspecified)	11.7	0.6	-5.7	0.3	50.6	-0.4	-24.2	-27.6	0.9	-5.0
26	CCc1cccc(N=c2c([N+](=O)[O-])nn(-c3ccc(Cl)cc3)n2O)c1	50.6	1.6	-32.8	-8.0	-2.4	-0.6	-24.7	33.8	27.9	-1.5
27	Cc1cc(C)c(NC(=O)COC(=O)c2nc3nccc(C)n3n2)c(Cl)c1	.	-2.5	-2.4	-6.3	.	-0.8	.	.	.	-4.9
28	CC(/C=C/c1cccc([N+](=O)[O-])c1)=N\NC(=O)c1ccncc1	9.6	0.3	3.5	-4.4	-11.4	0.6	.	.	.	2.4
29	CC1SCC(=O)N(CC(=O)NC2CCCCC2)C1=O (stereo unspecified)	-9.3	-1.8	.	4.3	-7.5	0.6	13.8	3.6	1.2	.
30	CC(=O)Oc1ccc(-c2nc3ccccc3c(=O)o2)cc1	-1.2	.	-3.6	5.5	25.0	-4.0	-3.1	3.2	-0.2	4.9
31	CCCCCCCCCCSc1n[nH]c(NC(C)=O)n1	-25.7	-9.7	3.8	4.4	10.3	1.4	1.5	-1.4	0.3	-0.7
32	O=C(COC(=O)c1cccnc1Cl)NC1CCCCC1	.	0.8	13.2	-10.2	.	1.4	.	.	.	4.4
33	CCN(C(=O)COC(=O)/C=C/c1ccc(OC(F)F)c(OC)c1)C1CCS(=O)(=O)C1 (stereo unspecified)	.	-3.8	2.6	4.2	.	-0.3	1.3	11.1	-1.5	0.6
34	Cc1cccc(NC(=O)C(=O)NCc2ccc3c(c2)OCO3)c1C	0.1	3.8	-4.4	6.9	-19.5	0.3	12.5	10.8	1.4	-0.6
35	CC(=O)N(C)c1ccc(N=Cc2c(O)ccc3ccccc23)cc1	-5.1	-5.9	-15.1	-5.2	18.5	-0.5	11.5	5.8	0.8	4.3
36	Cc1ccc(CC(NC(=O)c2ccccc2)C(=O)NCC(=O)O)cc1 (stereo unspecified)	-11.3	0.0	-5.7	-1.1	-14.4	-0.7	-2.8	-6.3	2.1	2.7
37	CN(C)c1nc2c(c(=O)[nH]c(=O)n2C)n1Cc1ccccc1Br	0.6	-5.5	-15.7	-3.4	-3.0	0.0	.	.	.	-2.6
38	COC(=O)C1=C(C)N(CC2CCCO2)C(=O)C1 (stereo unspecified)	0.8	-5.5	10.7	-0.5	0.2	-0.4	.	.	.	13.3
39	C=CCNc1cnn(-c2ccc(C)cc2)c(=O)c1Sc1ccc(C)cc1	19.7	-2.6	2.2	-10.4	20.6	-1.9	11.0	6.7	0.9	0.7
40	COC(=O)Nc1nnc(-c2ccccc2Cl)s1	-22.2	7.8	2.9	0.7	43.6	-7.9	.	.	.	-3.0

Single records (already shown). Values in the order: T cruzi repl, Beta cell apopt, ALR inh, B2AR ag, Calb FLC, A1 inh, Ecoli rRNA inh, Ecoli rRNA inh OD600, Ecoli rRNA inh RFP, LANA-H2A inh
Results for `CC1SCC(=O)N(CC(=O)NC2CCCCC2)C1=O` (stereo unspecified) → -9.3, -1.8, ., 4.3, -7.5, 0.6, 13.8, 3.6, 1.2, .
Results for `Cc1ccc(CC(NC(=O)c2ccccc2)C(=O)NCC(=O)O)cc1` (stereo unspecified) → -11.3, 0.0, -5.7, -1.1, -14.4, -0.7, -2.8, -6.3, 2.1, 2.7
Results for `CN(C)c1nc2c(c(=O)[nH]c(=O)n2C)n1Cc1ccccc1Br` → 0.6, -5.5, -15.7, -3.4, -3.0, 0.0, ., ., ., -2.6
Results for `CC(=O)Oc1ccc(-c2nc3ccccc3c(=O)o2)cc1` → -1.2, ., -3.6, 5.5, 25.0, -4.0, -3.1, 3.2, -0.2, 4.9

More records.
entry	smiles	T cruzi repl	Beta cell apopt	ALR inh	B2AR ag	Calb FLC	A1 inh	Ecoli rRNA inh	Ecoli rRNA inh OD600	Ecoli rRNA inh RFP	LANA-H2A inh
41	CCC(=O)NS(=O)(=O)c1ccc(N=NN2CCCCC2)cc1	-11.7	-2.2	-11.3	-7.0	12.4	0.8	2.7	21.0	8.0	0.9
42	Cc1ccc(C)c(S(=O)(=O)N2CCCC2CNC(=O)C(=O)NCCc2ccccc2)c1 (stereo unspecified)	9.9	-1.8	1.5	1.4	-2.4	0.1	-19.4	-26.3	-0.6	1.5
43	CCN(CC)S(=O)(=O)c1cccc(NC(=O)COc2ccc(C#N)cc2OC)c1	11.5	1.7	-4.7	-5.4	-4.5	0.3	.	.	.	-0.6
44	CCCC(c1nnnn1CC(=O)OCC)N(Cc1cc2ccc(C)cc2[nH]c1=O)C1CCCC1 (stereo unspecified)	16.1	-3.1	-3.8	7.0	1.9	-0.3	.	.	.	0.5
45	CN(C1CCCCC1)S(=O)(=O)c1ccc(NC(=S)NC(=O)c2cccs2)cc1	35.8	9.0	0.3	6.8	?	0.7	.	.	.	1.3
46	COCCNC(=O)CN(CCc1ccccc1)S(=O)(=O)c1ccc(OC)cc1	7.7	-0.6	-2.2	-6.1	-13.3	0.5	1.6	0.3	-1.6	-3.0
47	CCn1cc(CNCc2ccc(OCC(O)CN(C)Cc3ccccc3)cc2)cn1 (stereo unspecified)	33.8	-1.8	-6.3	-7.7	-1.5	-2.7	.	.	.	7.9
48	COc1cccc(-n2c(Cc3cc(=O)[nH]c(=O)[nH]3)nnc2SCC(=O)N2CCCC2)c1	-10.8	1.8	.	-1.8	?	-0.4	.	.	.	5.3
49	O=C(O)c1cccc(NC(=S)NC(=O)c2ccncc2)c1	-14.8	-3.0	24.2	-8.8	-8.0	-1.5	13.9	8.2	0.0	-3.3
50	COc1ccccc1NC(=O)CCSc1nnc(-c2ccco2)o1	-4.7	-2.3	-0.7	2.4	-2.0	-0.9	1.5	6.3	-2.6	2.5
51	COCCn1c(=N)c(C(=O)NCc2ccco2)cc2c(=O)n3ccccc3nc21	.	1.5	19.5	-8.9	.	0.8	.	.	.	3.3
52	CCCCNC(=O)CSc1nc2cc3c(cc2c(=O)n1CCC(=O)NCCc1ccc(OC)c(OC)c1)OCO3	46.9	-1.3	.	3.0	19.2	-0.5	7.4	4.0	0.0	6.1
53	CCn1c(SCC(=O)Nc2oc(-c3ccccc3)c(-c3ccccc3)c2C#N)nnc1-c1cc(OC)cc(OC)c1	19.3	.	.	13.2	36.2	.	12.1	4.3	-2.8	.
54	O=C(CC1OC(=O)c2ccccc21)NCC1COc2ccccc2O1 (stereo unspecified)	-3.3	2.6	-3.1	4.1	1.4	0.0	1.8	0.4	0.0	6.6
55	O=C(O)[C@@H]1Cc2ccccc2N1	0.6	3.3	-28.6	-35.2	13.4	0.1	-3.3	5.9	1.5	3.1

Not all compounds are listed; the hit share may differ from the screen's.
